# Screening results deposited in PubChem BioAssay by Johns Hopkins Ion Channel Center.
# KCNQ2 block: KCNQ2 channel blockers in CHO-K1 cells – cell-based, FluxOR thallium flux, B-score, primary screen (AID 2156); 20 min; hits give low values; only compounds with negative scores are shown here; some inactives read as strong as hits; B-score at 10 µM; hit rate 1.1% among 310,000;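 active = fluorescence ratio B-score at most minus 3 library SDs, with starting brightness B-score within 2 library SDs, cut at about -5.5 in these data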
# Target sequence (O88943 whole entry, looked up): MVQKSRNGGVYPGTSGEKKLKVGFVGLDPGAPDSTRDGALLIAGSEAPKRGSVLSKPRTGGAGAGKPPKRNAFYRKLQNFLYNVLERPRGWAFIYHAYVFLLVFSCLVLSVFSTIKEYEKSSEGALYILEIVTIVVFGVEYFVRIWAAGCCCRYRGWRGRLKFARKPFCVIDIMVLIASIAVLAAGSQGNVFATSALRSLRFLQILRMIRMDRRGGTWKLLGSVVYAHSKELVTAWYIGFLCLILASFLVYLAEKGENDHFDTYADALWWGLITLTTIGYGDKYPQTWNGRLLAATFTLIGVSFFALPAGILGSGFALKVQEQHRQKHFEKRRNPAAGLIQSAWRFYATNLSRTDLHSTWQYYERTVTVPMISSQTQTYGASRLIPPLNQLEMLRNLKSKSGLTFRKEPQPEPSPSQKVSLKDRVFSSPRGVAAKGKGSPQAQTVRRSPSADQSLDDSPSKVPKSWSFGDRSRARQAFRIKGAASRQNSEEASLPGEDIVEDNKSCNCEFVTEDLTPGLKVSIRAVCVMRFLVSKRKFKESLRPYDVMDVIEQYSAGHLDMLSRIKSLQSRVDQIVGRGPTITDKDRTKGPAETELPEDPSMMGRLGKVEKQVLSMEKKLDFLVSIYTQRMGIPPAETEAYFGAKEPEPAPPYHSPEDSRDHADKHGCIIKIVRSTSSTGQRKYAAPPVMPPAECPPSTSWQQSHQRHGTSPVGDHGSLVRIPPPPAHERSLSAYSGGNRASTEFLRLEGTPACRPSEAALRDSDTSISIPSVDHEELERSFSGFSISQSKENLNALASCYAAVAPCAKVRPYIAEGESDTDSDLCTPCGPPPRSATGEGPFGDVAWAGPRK
# KCNQ2 block baseline: also measured in KCNQ2 block; calls as there; B-score; measured here: initial fluorescence intensity artifact check;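 brightness before thallium and not channel activity; 0 = typical well and far values either way flag optical interference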
# * = called active by the depositor; i = inactive.
KCNQ2 block	KCNQ2 block baseline	Compound
i	0.23	Cc1cnc(NC(=O)NCC2CCCC(CNC(=O)Nc3ncc(C)s3)C2)s1 (configuration not stated)
i	-0.53	CC(C)c1ccc(C2NC(=O)c3ccccc3O2)cc1 (configuration not stated)
i	-0.86	CC(=O)N1N=C(c2ccccc2)CC1c1ccc(F)cc1 (configuration not stated)
i	1.5	CC(=O)N1CCc2cc(Br)cc(S(=O)(=O)NCc3ccccn3)c21
i	1.1	Cc1cc(OCC(=O)NCCc2ccc(Cl)cc2)c2c(C)cc(=O)oc2c1
i	-0.04	Cc1ccc(NC(=O)NCc2cccnc2)cc1
i	0.05	C[C@]12CCC3C(CC[C@H]4CC(O)CC[C@]34C)C1CC/C2=N/NC(=O)c1ccncc1 (some centres not stated)
-14*	1.3*	Clc1ccc(COn2c(-c3ccccc3)nc3ccccc32)cc1
i	-1.2	COc1ccc(CC(=O)Oc2ccc(C)cc2C)cc1
i	1.6	CCOC(=O)C1=C(O)/C(=C\c2ccc(O)c(OCC)c2)N=C1C
i	0.49	Cc1nnc(SCC(=O)NC2CCCCC2C)s1 (configuration not stated)
i	0.01	Cc1ccc(Sc2ncccc2/C=N/O)cc1
i	-2.9	COc1cc(C(=O)NC(c2ccccc2)c2ccccc2)cc(Cl)c1OC
i	1.5	COc1ccc(C)cc1NC(=O)C(OC(=O)c1cnc(C)cn1)c1ccccc1 (configuration not stated)
i	0.08	CCCn1c(C(C)Nc2nc(-c3cccc(Br)c3)cs2)nc2ccccc21 (configuration not stated)
i	-1.2	CC(C)NC(=O)/C(C#N)=C/c1ccc2c(c1)OCCO2
i	2.8	Cc1sc(N/N=C/C=C/c2ccccc2)nc1-c1ccccc1
i	-0.19	N#CCSc1nc(N)c(C#N)c(C2CCCCC2)c1C#N
i	-0.32	COP(=O)(c1ccc(N(C)C)cc1)C(O)c1ccccc1 (configuration not stated)
i	0.06	Cc1ccc(C2=CC(c3ccc(C)cc3)n3ncnc3N2)cc1 (configuration not stated)
i	-2.6	CCc1cc2c3c(c(=O)oc2cc1OC)CCCC3
i	0.72	C/C(=N\NC(=O)c1ccc(O)cc1)c1ccc(N2CCOCC2)cc1
i	1.1	COc1ccc2nc(NC(=O)Nc3ccccc3OC)sc2c1
i	-0.04	CC(=O)Nc1ccc2c(c1)nc(CCN1CCN(c3ccccn3)CC1)n2C
i	-1.5	Cc1c(C(N)=O)sc2ncn(CC(=O)OC(C)C)c(=O)c12
i	0.97	Cc1cc(C)c2oc(C(=O)N(Cc3ccc(F)cc3)C3CCS(=O)(=O)C3)cc(=O)c2c1 (configuration not stated)
i	-0.03	O=C(NCc1ccco1)c1cc(-c2cccnc2)nc2ccccc12
i	0.22	COc1ccccc1/C=C/C=N/N1CCN(c2ccccn2)CC1
i	0.21	COc1ccc(N(CC(=O)NCc2ccc(C)cc2)S(=O)(=O)c2c(C)[nH]c(=O)[nH]c2=O)cc1
i	0.67	Cc1nc2ccccn2c1C(=O)c1ccccc1

# Laid out differently: results already given.
Compound | KCNQ2 block | KCNQ2 block baseline
COc1ccc(C)cc1NC(=O)C(OC(=O)c1cnc(C)cn1)c1ccccc1 (configuration not stated) | i | 1.5
CCCn1c(C(C)Nc2nc(-c3cccc(Br)c3)cs2)nc2ccccc21 (configuration not stated) | i | 0.08
CC(C)NC(=O)/C(C#N)=C/c1ccc2c(c1)OCCO2 | i | -1.2
Cc1sc(N/N=C/C=C/c2ccccc2)nc1-c1ccccc1 | i | 2.8
N#CCSc1nc(N)c(C#N)c(C2CCCCC2)c1C#N | i | -0.19
COP(=O)(c1ccc(N(C)C)cc1)C(O)c1ccccc1 (configuration not stated) | i | -0.32
Cc1ccc(C2=CC(c3ccc(C)cc3)n3ncnc3N2)cc1 (configuration not stated) | i | 0.06
CCc1cc2c3c(c(=O)oc2cc1OC)CCCC3 | i | -2.6
C/C(=N\NC(=O)c1ccc(O)cc1)c1ccc(N2CCOCC2)cc1 | i | 0.72
COc1ccc2nc(NC(=O)Nc3ccccc3OC)sc2c1 | i | 1.1
CC(=O)Nc1ccc2c(c1)nc(CCN1CCN(c3ccccn3)CC1)n2C | i | -0.04
Cc1c(C(N)=O)sc2ncn(CC(=O)OC(C)C)c(=O)c12 | i | -1.5
Cc1cc(C)c2oc(C(=O)N(Cc3ccc(F)cc3)C3CCS(=O)(=O)C3)cc(=O)c2c1 (configuration not stated) | i | 0.97
O=C(NCc1ccco1)c1cc(-c2cccnc2)nc2ccccc12 | i | -0.03
COc1ccccc1/C=C/C=N/N1CCN(c2ccccn2)CC1 | i | 0.22
COc1ccc(N(CC(=O)NCc2ccc(C)cc2)S(=O)(=O)c2c(C)[nH]c(=O)[nH]c2=O)cc1 | i | 0.21
Cc1nc2ccccn2c1C(=O)c1ccccc1 | i | 0.67

# (continued)
KCNQ2 block	KCNQ2 block baseline	Compound
i	0.34	Cc1ccc(C(=O)O/N=C/c2c(C(F)(F)F)nn(C)c2Sc2ccc(Cl)cc2)cc1
i	-0.9	CC(C)(C)OC(=O)N/N=C\c1ccc([N+](=O)[O-])s1
i	0.27	COc1ccc(C(C(=O)NCc2ccc(F)cc2)N(C(=O)c2csnn2)C2CC2)cc1 (configuration not stated)
i	-0.08	Cc1c(C(=O)N2CCN(c3ccccn3)CC2)oc2ccccc12
i	0.7	NC(=O)c1ccsc1NC(=O)COC(=O)C1CC2CCCC(C1)C2=O (configuration not stated)
i	-0.01	COc1ccc(CCN(C)C(=O)/C=C/c2c(Cl)nc3ccccn23)cc1OC
i	5.2	Cc1c(Cl)cccc1NC(=O)C1CCCCC1
i	-0.35	COC(=O)Cc1c(C)c2ccc(OC3CCCCC3=O)cc2oc1=O (configuration not stated)
i	-0.32	O=C(COC(=O)c1cccc2ccccc12)NCCCc1ccccc1
i	-1.5	COc1ccc(C(F)(F)F)cc1NC(=O)c1nc2nc(C)cc(C(F)F)n2n1
i	0.21	O=S1(=O)CCO[C@H]2Cc3ccccc3[C@H]2N1Cc1ccc(F)cc1
i	0.27	O=C(c1cccc(F)c1)N1CCC(N2CCOCC2)CC1
i	1.1	CCc1ccc(C(=O)/C=C/Nc2ccc(S(=O)(=O)Nc3cnc4ccccc4n3)cc2)cc1
i	-0.17	Fc1ccc(C(c2nnnn2CCc2ccccc2)N2CCCc3ccccc32)cc1 (configuration not stated)
i	-2.5	Clc1ccc(-c2noc(CN3CCOCC3)n2)cc1
i	0.4	COc1ccccc1N1C(=O)CC(Nc2ccc(N3CCOCC3)cc2)C1=O (configuration not stated)
i	1.5	CC(=O)Nc1ccc(NC(=O)[C@H](C)NC(=O)c2ccco2)cc1
i	-0.78	COc1c(Cl)cc(Cl)cc1C(=O)Nc1ccc(CN2CCOCC2)cc1
i	-0.33	COc1ccc(N)c2c1OCCC2=O
i	0.11	O=C1CN(S(=O)(=O)c2ccccc2C(F)(F)F)CCN1
i	-0.51	COc1ccccc1N1CCN(S(=O)(=O)c2ccc(Br)s2)CC1
i	2.5	COc1ccc(Cl)cc1NC(=O)CCN1CCN(Cc2ccccc2)CC1
i	-0.8	O=C(N/N=C/c1cccc(OCc2ccccc2)c1)c1ccc(Br)o1
i	0.03	Cc1ccc(S(=O)(=O)N2CCN(C(=O)CN3CCN(C)CC3)C2)cc1
i	-0.54	CCOC(=O)c1ccc(NC(=S)NNC(=O)c2cc(-c3cccnc3)nc3ccccc23)cc1
i	1.3	Cc1ccc(-c2noc(-c3cc(C(C)(C)C)nn3Cc3ccccc3)n2)cc1
i	0.03	CCN1C(=O)/C(=C\c2ccc3c(c2)OCO3)C(C(=O)OC)=C1C
i	0.26	N#Cc1ccc(CSc2nnc(-c3ccncc3)n2CCc2ccccc2)cc1
i	1.3	CCOC(=O)c1cccc(NC(=O)C2CCCO2)c1 (configuration not stated)
i	1.1	CC(C)OC(=O)c1cn(-c2ccccc2)nc1-c1ccc2c(c1)OCCO2
i	1.7	CC(C)(C)NC(=O)C1CCN(c2ccc(S(=O)(=O)N3CCOCC3)cc2Cl)CC1
i	1.2	O=C(c1ccc(Cl)s1)N1CCN(C23CC4CC(CC(C4)C2)C3)CC1
i	-0.16	Cc1cccc(NC(=O)CC2NCCNC2=O)c1 (configuration not stated)
i	-0.03	Cc1nc2c(C(=O)N3CCN(c4ccccn4)CC3)cnn2c(C)c1Cc1cccc(Cl)c1
i	0.29	CC(C)n1cc(CN2CCCC(C(=O)Nc3ccccc3Oc3cccnc3)C2)cn1 (configuration not stated)
i	0.98	Cc1c(Cl)cccc1NC(=O)C1=COCCO1
i	-0.03	O=C(Cc1c(Cl)cccc1Cl)OCC(=O)N1CCc2ccccc2C1
i	1.6	Cn1nccc1NC(=O)CC(CC(=O)O)c1ccccc1 (configuration not stated)
i	0.35	CC(C)C(=O)Nc1ccc(NC(=O)c2ccc([N+](=O)[O-])cc2Cl)cc1
i	1	C/C(=N/NS(=O)(=O)c1cc(C)ccc1C)c1c[nH]c2ccccc12
i	-1.1	Cc1cccc(C)c1NC(=S)N(CCCN1CCOCC1)Cc1cccnc1
i	-0.83	C=CCN(C(=O)Cc1cccs1)c1nc(-c2ccc(S(C)(=O)=O)cc2)cs1
i	-0.01	Fc1cccc(CN2CCCCCCC2)c1
i	1.2	O=C(COc1ccccc1F)NNC(=O)c1ccc2c(=O)n3c(nc2c1)CCC3
i	-1.9	CCOC(=O)N1CCN(S(=O)(=O)c2ccc(C(=O)Nc3nc4ccccc4s3)cc2)CC1
i	-0.09	COC(=O)C1=CN(Cc2ccc(OC)c(OC)c2)C=C(C(=O)OC)C1c1ccc(O)cc1
i	1.1	CC(=O)c1cnc2c(-c3ccccc3)c(C(F)(F)F)nn2c1C
i	-0.82	CC(=O)OCC(=O)[C@@]1(OC(C)=O)[C@@H](C)C[C@H]2[C@@H]3C[C@H](F)C4=CC(=O)C=C[C@]4(C)[C@@]3(F)[C@@H](O)C[C@@]21C
i	-1.6	OCCN1CCN(c2nc(-c3ccccc3)c3cc(Br)ccc3n2)CC1
i	0.46	CCN(CC)S(=O)(=O)c1ccc(C(=O)NCc2ccc3c(c2)cc(C)n3C)cc1
i	-0.57	COc1cc(C(=O)NCC(=O)OCC(=O)c2ccc[nH]2)cc(OC)c1OC
i	-0.17	COc1ccc(CN(Cc2cccnc2)S(=O)(=O)c2ccc(-n3cnnn3)c(OC)c2)cc1
i	-0.33	COc1ccc(OCCSc2nc(C)c(Cc3ccccc3)c(=O)[nH]2)cc1
i	0.21	O=S(=O)(Nc1ccc(Cl)cn1)c1ccccc1
i	1.3	Cc1occc1-c1n[nH]c(=S)n1C
i	-0.48	O=c1[nH]c(O)c(/C=C2\C=Nc3ccc(Br)cc32)[nH]1
i	0.42	O=C(Nc1cc(=O)[nH]c2ncnn12)c1ccco1
i	0.06	COc1ccc(N(CC(=O)NC2CCCCC2)C(=O)c2ccc(C)s2)cc1OC
i	-2	Cc1ccc(C)c(NS(=O)(=O)c2cc3c4c(c2)CC(=O)N4CCC3)c1
i	-0.88	CSCCCN1CCC(n2nccc2NC(=O)CCCc2ccccc2)CC1

# Next results.
KCNQ2 block	KCNQ2 block baseline	Compound
i	-0.6	CCCNC(=O)NC(=O)CSc1nc2cc(C(=O)OC)ccc2c(=O)n1-c1ccccc1
i	-1.2	CCN(CC)c1ccc([C@H]2[C@@H]3CCCC[C@]3(O)CCN2CC(=O)NCc2ccco2)cc1
i	0.02	Nc1nonc1OCCN1CCN(c2ccc([N+](=O)[O-])c3cccnc23)CC1
i	-1.2	CNC(=O)COc1ccc(Nc2nnc(-c3ccc(C)c(S(N)(=O)=O)c3)c3ccccc23)cc1
i	0.27	Cc1ccc(C(=O)NC(=S)NCC(=O)c2ccccc2)cc1
i	-1.4	Cc1ccc(NC(=O)CNC(=O)c2ccc(C)o2)cc1
i	-0.24	Cc1ccc(NC(=O)C2CCCN2S(=O)(=O)c2cccc3cccnc23)cc1F (configuration not stated)
i	-0.45	COc1ccc(OCCNc2cc(Cl)ccc2[N+](=O)[O-])cc1
i	-0.04	CCOC(=O)C1=C(C)NC(=O)N(C(C)=O)C1c1ccc(Cl)cc1 (configuration not stated)
i	0.91	O=C(NOC(=O)c1ccccc1F)c1ccc(OC(F)F)cc1
i	-0.18	O=C(CCN1C(=O)/C(=C\c2cccs2)SC1=S)Nc1ccc(C(=O)O)cc1
i	-0.69	COc1ccc(C2=NN(C(=O)c3cccnc3)C(c3ccccc3)C2)cc1 (configuration not stated)
i	-1.6	Cc1cnc(C(=O)OCc2ccc(C#N)cc2)cn1
i	0.16	O=C(Cc1c(F)cccc1Cl)Nc1cccnc1
i	-0.5	COCCn1c(SCC(=O)OCc2ccccc2)nc2c1c(=O)[nH]c(=O)n2C
i	4.1	CC(Nc1cc(N2CCOCC2)ccc1[N+](=O)[O-])c1ccccc1 (configuration not stated)
i	2.8	COc1cccc(-c2nc(CS(=O)(=O)c3ccccc3)no2)c1
i	-0.03	NS(=O)(=O)c1ccc(NC(=O)CN2C(=O)C3C4C=CC(C4)C3C2=O)cc1 (configuration not stated)
i	2	Fc1ccc2c(c1)C(c1ccc(N3CCOCC3)cc1)=NNC(c1cccs1)=N2
i	0.37	O=C1NC(=O)C(c2cccs2)(c2cccs2)N1
i	-1.8	CCOc1cc(C=O)ccc1OCC(=O)NC(C)(C)C
i	1.1	CC1(OC(=O)CCc2ccccc2)C(=O)C=C2C=C(c3ccc(C#N)cc3)N(C3CCCC3)C=C2C1=O (configuration not stated)
i	-0.33	CC1(c2nnc(-c3ccc(F)cc3)o2)CC(c2ccccc2)=NO1 (configuration not stated)
i	0.05	COc1cc(/C=N/NC(=O)c2nc(-c3ccccc3)n(-c3ccccc3)n2)ccc1O
i	0.94	O=C(COC(=O)Cc1c(F)cccc1Cl)NCCC1=CCCCC1
i	1.9	CCNc1nc(SC(C)C(=O)OC)nc(N2CCOCC2)n1 (configuration not stated)
i	0.55	O=C(CCN1C(=O)S/C(=C\c2cccs2)C1=O)Nc1nccs1
i	0.78	COc1ccc(OCC(=O)Nc2cc3oc4ccccc4c3cc2OC)cc1
i	2.2	NC(=O)C1=C[C@@H](c2coc3ccccc3c2=O)C[C@@H](OCc2ccc(CO)cc2)O1
i	-1.1	CCN1CCN(C(c2cccs2)C(C)NC(=S)Nc2cc(C)ccc2C)CC1 (configuration not stated)

# A portion of the library; count on the stated rates, not on these rows.
